Assay outcomes as filed in PubChem BioAssay.
TRPV1 PAM: human TRPV1 potentiation | Q8NER1 | TRPV1-expressing cells, Fluo-8 calcium influx, capsaicin EC20 potentiation; host cell line not named in the record; control for the full effect not named in the record | potentiation, % at 8.33 µM | hit rate 0.02% among 320,000 | AID 540277; active means potentiation above 80%; inconclusive means 30% to 80%; inactive means below 30%; note: 0% is about no effect
Target sequence (Q8NER1 whole entry, looked up): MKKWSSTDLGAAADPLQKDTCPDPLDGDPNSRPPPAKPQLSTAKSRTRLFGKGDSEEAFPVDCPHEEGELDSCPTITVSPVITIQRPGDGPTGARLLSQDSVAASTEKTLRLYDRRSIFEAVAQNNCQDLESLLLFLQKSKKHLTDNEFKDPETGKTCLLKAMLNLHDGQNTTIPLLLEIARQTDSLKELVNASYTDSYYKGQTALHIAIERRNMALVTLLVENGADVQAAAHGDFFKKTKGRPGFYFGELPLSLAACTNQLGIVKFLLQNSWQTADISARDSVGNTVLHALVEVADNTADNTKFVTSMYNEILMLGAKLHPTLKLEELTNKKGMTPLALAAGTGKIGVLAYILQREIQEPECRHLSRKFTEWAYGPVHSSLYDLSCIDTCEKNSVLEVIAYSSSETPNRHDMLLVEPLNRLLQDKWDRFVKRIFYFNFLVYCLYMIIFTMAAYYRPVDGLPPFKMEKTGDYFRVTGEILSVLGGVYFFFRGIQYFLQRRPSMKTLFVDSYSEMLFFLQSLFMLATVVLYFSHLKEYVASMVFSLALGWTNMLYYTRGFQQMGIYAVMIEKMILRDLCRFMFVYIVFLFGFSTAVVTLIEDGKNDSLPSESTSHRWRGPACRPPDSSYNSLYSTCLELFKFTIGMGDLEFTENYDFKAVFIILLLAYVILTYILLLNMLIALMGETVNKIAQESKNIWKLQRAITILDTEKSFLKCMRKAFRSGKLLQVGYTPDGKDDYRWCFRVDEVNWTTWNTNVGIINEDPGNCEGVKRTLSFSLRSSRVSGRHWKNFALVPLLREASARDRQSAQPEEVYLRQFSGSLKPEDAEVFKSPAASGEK
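Fluo-8 calcium influx in TRPV1-expressing cells, kinetic read (ex 480/em 520 nm). Compound added and read 3 min for agonist activity, followed by capsaicin at EC20 final and 2 min further read for enhancement.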
Sfp inh: inhibitors of Bacillus subtilis Sfp phosphopantetheinyl transferase. Biochemical Sfp PPTase activity, qHTS. Potency, µM, without a hit: max response, negative = inhibition, most hits filed as inhibitors. hit rate 3.5% among 310,000. AID 1490; active = well fitted inhibition curve with a large enough effect; inconclusive = small, poorly fitted or top-dose-only effect, or another doubt; inactive = no such curve, though single readings can be large or run the other way;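 note: the enzyme is Sfp with the accession as filed and its product quenches rhodamine fluorescence; potency is the fitted concentration of half-maximal effect; 0% = enzyme reaction without inhibitor and -100% = no enzyme wells; top concentration of the series not given in the record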
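Step 1, compound plus 15 nM Sfp-PPTase, 15 min, room temperature. Step 2, add rhodamine-CoA (5 uM) and BHQ-2-YbbR (12.5 uM). Step 3, read 525/598 nm fluorescence at 0 and 30 min.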
gsp antag: antagonizes gsp, the McCune-Albright syndrome mutation; hit rate 0.4% among 340,000; gsp-mutant cells, cAMP HTRF, 30 min; control for the full effect not named in the record; AID 624288; Potency, µM (highest dose often 76.9 µM), without a hit: at the top dose activity change, negative = inhibition, most hits filed as inhibitors; active = falling curve of any shape with a large fitted effect; inconclusive = falling curve, mostly with a smaller effect; inactive = flat or rising curve; cell line not stated here;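 note: intracellular cAMP measured with PDE inhibitor Ro 20-1724 present during compound exposure; potency is the fitted concentration of half-maximal effect; % is set by controls: 0 for no effect and ±100 for the full control effect; nearly all actives have a fitted effect of over 65% in size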
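HTRF cAMP measurement after 30 min RT detection following 30 min, 37C compound treatment alongside […] (added as 300 uM solution) in G418-selected cells seeded at 2000/well and grown 16–24 h.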
ClpP mod: qHTS Assay for Activators of ClpP. purified B. subtilis ClpP, FRET peptide cleavage, 20 min. Potency, µM (highest dose often 57.5 µM), inactives show at the top dose activity change, negative = active. AID 651965, 2013. ATP-dependent Clp protease proteolytic subunit (Bacillus subtilis (strain 168)), P80244. hit rate 1.9% among 340,000; active = well fitted falling curve with a large enough effect; inconclusive = small, poorly fitted or top-dose-only effect; inactive = no such curve, though single readings can be large or run the other way; note: potency is the fitted concentration of half-maximal effect; the source files actives as falling curves though it sought activators and does not explain the sign; nearly all actives have a fitted effect of over 65% in size; many hits overshoot -100%
Target sequence (P80244 whole entry, looked up): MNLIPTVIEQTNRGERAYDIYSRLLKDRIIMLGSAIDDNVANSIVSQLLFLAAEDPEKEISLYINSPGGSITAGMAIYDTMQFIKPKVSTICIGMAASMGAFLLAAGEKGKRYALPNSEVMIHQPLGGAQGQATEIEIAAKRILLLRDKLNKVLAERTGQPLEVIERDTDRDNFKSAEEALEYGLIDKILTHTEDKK
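ClpP 10 microg/mL final, pH 8 Tris/KCl buffer with BSA, glycerol, Tween-20; compound pinned in; FRET-FV substrate; RT 20 min; Ex320/Em430; ΔFRET vs ADEP 5.8 microM, DMSO, no enzyme.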
gsp agonist: activates gsp, the McCune-Albright syndrome mutation; Potency, µM (highest dose often 76.9 µM), for inactives: at the top dose activation (cAMP increase), hits mostly activators; AID 624287; gsp mutant cells, cAMP HTRF, 30 min; control for the full effect not named in the record; hit rate 0.13% among 340,000; active = well fitted activation curve with a large enough effect; inconclusive = small, poorly fitted or top-dose-only effect, or another doubt; inactive = no such curve, though single readings can be large or run the other way; cell line not stated here;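 note: phosphodiesterase inhibitor Ro 20-1724 added with compounds to block cAMP breakdown; potency is the fitted concentration of half-maximal effect; nearly all actives have a fitted effect of over 60% in size; about a fifth of the inactives were tested at one dose only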
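Cells in DMEM/10% FBS with G418 were pretreated with compounds in DMSO plus […] (300 uM stock) for 30 min at 37C. cAMP was measured by HTRF (cAMP-d2 plus anti-cAMP antibody-K) after 30 min at room temperature.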
Menin-MLL FL inh: menin-MLL binding inhibition, fluorescein peptide. FP activity change, % at 61.4 µM. Fluorescence polarization, fluorescein-MLL peptide displacement from menin. AID 1766. 290,000 tested, under 10 active; inconclusive = falling polarisation curve, or a change in total fluorescence; inactive = total fluorescence flat and polarisation flat or rising; no compound was filed as active; the % refers to the polarisation; negative = inhibition;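 note: % of control where 0% means no effect; inhibitors lower the polarisation; unlabelled MLL peptide was the positive control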
CtBP-E1A inh: inhibitors of CtBP/E1A interaction. activity change, % (test concentration not listed). hit rate 0.49% among 340,000. AlphaScreen GST-E1A/His-CtBP binding, 1536-well; stronger effect = lower value; control for the full effect not named in the record; in the data active means activity change below about -65%; inconclusive means about -30% to -65%; inactive means above about -30%; note: % is set by controls: 0 for no effect and ±100 for the full control effect; compound concentration not given in the record
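In 5 uL wells, 23 nL compound meets equimolar GST-E1A and His-CtBP (5X stock 125 nM each) for 2 h, 37 °C. Beads (5X, 50 ug/mL) then 1 h, 37 °C, dark.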
Starred values were filed as active, the others as inactive; u = inconclusive; x = no result given; & = joins results of further samples; [ ] = another dose, or the depositor's remark. No enrichment for hits; 5.3% or so of the library scored in one or more.

SMILES	TRPV1 PAM	Sfp inh	gsp antag	ClpP mod	gsp agonist	Menin-MLL FL inh	CtBP-E1A inh
COc1ccc(OC)c(/C=C/C(=O)OCC(=O)NC2CCCCCCC2)c1	8	x	-8%	u	4%	x	x
O=C(O)c1ccc(NS(=O)(=O)/C=C/c2ccccc2)cc1O	7	-2%	5%	-2.3%	1%	4.9	1
C[C@@H]1CN([C@@H](C)CO)C(=O)CCCn2cc(nn2)CO[C@H]1CN(C)S(=O)(=O)c1cccs1	x	x	x	-1.8%	-31%	x	6
O=C(CCN1C(=O)CSC1=O)Nc1ccc(Br)cc1	-11	22%	3%	0.4%	5%	1.4	7
S=C(NCc1cccnc1)Nc1ccc2c(c1)OCO2	6	1%	6%	-0.5%	-18%	0.7	5
O=S(=O)(Nc1ncccn1)c1ccc(NC(=S)Nc2ccccc2)cc1	-3	-2%	6%	-3.1%	-78%[inhibitor]	x	-8
CCc1ccc(NC(=O)CC2C(=O)N(c3ccc(C)cc3)C(=O)N2C2CC2)cc1 (configuration not stated)	-1	13%	-10%	1.3%	23%	-3.6	x
NC(=O)c1ccsc1NC(=O)COC(=O)CNC(=O)c1cccc([N+](=O)[O-])c1	6	x	3%	1.1%	-4%	x	1
Nc1ccc(S(=O)(=O)c2ccc(Cl)cc2)cc1	11	7%	-17%	-0.5%	-29%	-1.5	10
NC(=O)C1Cc2ccccc2CN1S(=O)(=O)c1ccc(Cl)s1 (configuration not stated)	1	20%	-6%	x	-2%[15.4 µM]	-0.3	-1
N#CC(C(=O)NCc1ccco1)c1nc2ccccc2nc1N1CCOCC1 (configuration not stated)	16	-11%	-4%	-0.4%	18%	u	-11
COC(=O)c1ccccc1NC(=O)C1CCCCC1C(=O)O (configuration not stated)	2	33%[activator]	-2%	28µM*	u	2.6	13
CC1(C)SC2c3ccccc3C(=O)N2[C@@H]1C(=O)NCc1ccco1 (some centres not stated)	-6	-10%	9%	-1.3%	u	1.6	-1
CCCc1cc(=O)oc2cc(C)cc(OC(C)C(=O)NCCCn3ccnc3)c12 (configuration not stated)	-10	11%	6%	3.9%	u	4.8	-3
CCC1CCCCN1CCCNC(=O)COc1cc(=O)n(C)c2ccccc12 (configuration not stated)	7	11%	-1%	-10%	-1%	0.2	3
Cc1nc2nc(SCC(=O)c3cccc([N+](=O)[O-])c3)[nH]c2cc1Br	u	3%	-21%	-1.4%	6%	12	-2
Cc1ccc(Oc2ccc(OCC(=O)NC3CCS(=O)(=O)C3)cc2)cc1 (configuration not stated)	12	2%	-3%	x	7%	-6.7	-2
CCC(=O)OCCn1c(=O)c2cc3c(=O)n(CCOC(=O)CC)c(=O)c3cc2c1=O	-11	16%	8%	-1.2%	u	-0.8	0
CCCC(c1nnnn1CS(=O)(=O)c1ccc(C)cc1)N1CCN(CC)CC1 (configuration not stated)	-9	10%	12%	x	-21%	-0.9	-5
Cc1ccc(-c2csc3ncnc(N4CCN(C(=O)c5ccco5)CC4)c23)cc1	-13	x	-38%	0.8%	7%	x	11
CC(CO)NS(=O)(=O)c1cc(Cl)ccc1F (configuration not stated)	x	x	x	0.9%	u	x	6
Cc1onc(-c2ccc(Cl)cc2)c1-c1ccnn1S(=O)(=O)c1ccc(Cl)cc1	7	-3%	-16%	x	-31%[15.4 µM]	2.6	1
COc1cccc(/C=N/NC(=O)c2ccc(=O)[nH]n2)c1O	x	13%	3%	0.9%	0%	1.5	x
c1ccc(-c2onc3c2CCCC3)cc1	-2	16%	9%	-0.7%	-40%[inhibitor]	0.9	10
COc1ccc(N2CCN(C(=O)COC(=O)Cc3c(F)cccc3Cl)CC2)cc1	-14	x	-13%	-4.2%	-2%	x	-3
CCc1cccc(NC(=O)CCC(=O)O)c1	-3	3%	16%	0.8%	-20%	0.0	-2
Cn1c(=O)c2c(nc(CN3CCC(C(N)=O)CC3)n2CCc2ccccc2)n(C)c1=O	-3	3%	-4%	-6.5%	u	3.7	-18
C#CCOCCOCCOCCNc1nc(N2CCN(C(=O)[C@H]([C@@H](C)CC)n3cc([C@@H](N)CO)nn3)CC2)nc(N2CCN(C(=O)[C@H](CCCCN)n3cc([C@@H](N)CO)nn3)CC2)n1	x	x	-5%	-2.0%	0%	x	-9
CCOC(=O)c1c(C)[nH]c(C(=O)OCc2ccc(C)cc2)c1C	x	x	5%	1.2%	25%	x	8
CC(C)c1ccc(Nc2ncccc2C#N)cc1	-19	5%	-5%	2.1%	-13%	0.7	28
Cc1ccc(C(=O)N/N=C/c2ccc3c(c2)OCO3)o1	-24	5%	-14%	-12%	u	1.9	1
O=C(O)CCCC(=O)Nc1cc([N+](=O)[O-])ccc1O	-1	13%	5%	2.2%	-14%	4.0	x
CCCOc1cc(C)c(S(=O)(=O)n2nnc3ccccc32)cc1C	-16	2%	5%	-2.0%	-3%	1.8	4
CC(NC(=O)c1ccccc1)C(=O)NNC(=O)c1ccccc1Cl (configuration not stated)	-8	x	10%	-0.1%	2%	x	x
CN1CCN(c2ccccc2NC(=O)c2cc(Br)ccc2Cl)CC1	-6	6%	9%	u	-23%	0.6	-16
CCCCn1c(=O)c(CCC(=O)OCC(=O)Nc2ccc(C)c(Cl)c2)nc2ccccc21	5	11%	x	x	x	2.1	x
CCCCC(CC)C1OCC(CN2CCCC2)O1 (configuration not stated)	-9	17%	10%	-0.2%	-4%	-0.9	6
Cc1ccc(S(=O)(=O)N2CCOCC2)cc1NC(=O)COC(=O)C1=COCCO1	12	x	-1%	x	-16%[15.4 µM]	x	6
CCOC(=O)CNC(=O)Cn1cnc2c(cnn2-c2ccc(C)cc2)c1=O	7	3%	-11%	-0.5%	17%[15.4 µM]	3.5	-2
O=C1c2ccncc2C(=O)N1CO	3	-12%	10%	-0.7%	u	3.0	3
Cc1nn(CC(=O)NCCCN2CCC(N3CCCCC3)CC2)c(=O)c2cc(-c3ccccc3)nn12	-5	-5%	-4%	0.5%	u	1.0	-13
Cc1cc(NC(CC(C)C)C(=O)O)nc(Cc2ccccc2)n1 (configuration not stated)	8	17%	3%	-2.2%	19%	0.2	1
COC(=O)N/N=C/c1ccc(OC(=O)/C=C/c2ccco2)cc1	x	-18%	2%	x	u	12	-71*
Cc1ccc(C)c(N2CCN(C(c3ccc(N(C)C)cc3)c3nnnn3C(C)(C)C)CC2)c1 (configuration not stated)	-10	0%	13%	-6.2%	-56%[inhibitor]	1.7	2
O=C(O)CCCC(=O)Nc1cccc(C(F)(F)F)c1	0	6%	3%	-1.4%	u	-0.5	0
CSc1ccccc1NC(=O)CN(C)C(=O)c1ccc(NC(=O)c2cccs2)cc1	11	x	-14%	0.9%	6%	x	x
O=P1(O)C=C(c2ccccc2)NC(c2ccccc2)=C1	-19	8%	-2%	0.2%	-2%	2.3	5
Cn1c(=O)c(=O)n(C)c2cc(N3CCOCC3)c(NS(=O)(=O)c3ccc(F)c(Cl)c3)cc21	13	10%	-16%	-5.3%&-9.6%	-34%[inhibitor]	1.1	-2
CCc1ccc(N=CC2=C(O)CC(c3ccco3)CC2=O)cc1 (configuration not stated)	2	79µM*	-10%	1.5%	1%	-0.5	-1
Cc1noc(/C=C/N(C)C)c1S(=O)(=O)N1CCCC(C(=O)NCCC2=CCCCC2)C1 (configuration not stated)	9	5%	-13%	-0.6%	-3%	3.4	1
COc1ccc(-c2n[nH]c(=S)n2N)c(OC)c1	-3	35µM*	5%	-5.7%	25%	3.4	x
CC[C@@]12C(=O)N(c3cccc(F)c3)C(=O)N1[C@H](c1cccc(C)c1)[C@@H]1C(=O)N(Cc3ccccc3)C(=O)[C@@H]12	-3	4%	-1%	-1.6%	2%	-9.3	-2

Reformatted with each value named: entries from further up
> CC(CO)NS(=O)(=O)c1cc(Cl)ccc1F (configuration not stated)
  TRPV1 PAM: x; Sfp inh: x; gsp antag: x; ClpP mod: 0.9%; gsp agonist: u; Menin-MLL FL inh: x; CtBP-E1A inh: 6

> NC(=O)c1ccsc1NC(=O)COC(=O)CNC(=O)c1cccc([N+](=O)[O-])c1
  TRPV1 PAM: 6; Sfp inh: x; gsp antag: 3%; ClpP mod: 1.1%; gsp agonist: -4%; Menin-MLL FL inh: x; CtBP-E1A inh: 1

> CCc1cccc(NC(=O)CCC(=O)O)c1
  TRPV1 PAM: -3; Sfp inh: 3%; gsp antag: 16%; ClpP mod: 0.8%; gsp agonist: -20%; Menin-MLL FL inh: 0.0; CtBP-E1A inh: -2

Single records, as listed above. Order of values: TRPV1 PAM | Sfp inh | gsp antag | ClpP mod | gsp agonist | Menin-MLL FL inh | CtBP-E1A inh
Cc1cc(NC(CC(C)C)C(=O)O)nc(Cc2ccccc2)n1 (configuration not stated) is listed with 8 | 17% | 3% | -2.2% | 19% | 0.2 | 1
CCc1ccc(N=CC2=C(O)CC(c3ccco3)CC2=O)cc1 (configuration not stated) is listed with 2 | 79µM* | -10% | 1.5% | 1% | -0.5 | -1
CSc1ccccc1NC(=O)CN(C)C(=O)c1ccc(NC(=O)c2cccs2)cc1 is listed with 11 | x | -14% | 0.9% | 6% | x | x
